# Bioassay records from PubChem BioAssay.
# TRPML1 agonist: human mucolipin-1 channel agonism; TRPML1-expressing cells, Ca2+ dye fluorescence, FDSS; host cell line not named in the record; reference of the full effect not given here; AID 624414; actives 0.12% (n = 410,000); activation, % (no concentration beside the values); Q9GZU1; in the data active = activation above about 50%; inconclusive = about 30% to 50%; inactive = below about 30%; further: 0% is about no effect; the text of the record puts the active cut at 80%
# Target sequence (Q9GZU1 whole entry, looked up): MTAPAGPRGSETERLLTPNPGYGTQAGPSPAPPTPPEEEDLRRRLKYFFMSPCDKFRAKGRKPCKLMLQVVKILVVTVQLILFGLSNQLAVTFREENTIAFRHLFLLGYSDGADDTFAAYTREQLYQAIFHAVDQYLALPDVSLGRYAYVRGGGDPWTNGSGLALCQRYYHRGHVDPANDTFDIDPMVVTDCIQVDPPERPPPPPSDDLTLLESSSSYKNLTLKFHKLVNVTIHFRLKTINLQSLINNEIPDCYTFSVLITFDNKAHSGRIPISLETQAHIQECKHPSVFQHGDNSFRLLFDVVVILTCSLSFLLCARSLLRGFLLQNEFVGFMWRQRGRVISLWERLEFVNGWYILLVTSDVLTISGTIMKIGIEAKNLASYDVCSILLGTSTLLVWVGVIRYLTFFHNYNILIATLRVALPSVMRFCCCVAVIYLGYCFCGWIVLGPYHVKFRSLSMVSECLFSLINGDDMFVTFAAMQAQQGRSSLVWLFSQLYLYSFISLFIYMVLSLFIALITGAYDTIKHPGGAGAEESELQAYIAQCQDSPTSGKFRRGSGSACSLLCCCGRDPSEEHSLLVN
#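 Cells: TRPML1-DL, 1X Tet inducer, ~16 h at 37 degrees C/5% CO2. Dye: ABD Ca8 no-wash + quencher, 45-90 min RT. Read: 10 s baseline, compound add, 110 s agonist phase; 54-4 EC80 (4uM final), 110 s antagonist phase.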
# D2 ag: human D2 receptor agonism in beta-arrestin assay; P14416; DiscoveRx PathHunter D2 beta-arrestin, luminescence, 90 min; 100% = 57 uM dopamine signal; activation, % (concentration not given with the values); actives 0.084% (n = 360,000); AID 624465; in the data active = activation above about 40%; inconclusive = about 15% to 40%; inactive = below about 15%; further: compound concentration not given in the record; the text of the record calls up to 30% inactive
# Target sequence (P14416 whole entry, looked up): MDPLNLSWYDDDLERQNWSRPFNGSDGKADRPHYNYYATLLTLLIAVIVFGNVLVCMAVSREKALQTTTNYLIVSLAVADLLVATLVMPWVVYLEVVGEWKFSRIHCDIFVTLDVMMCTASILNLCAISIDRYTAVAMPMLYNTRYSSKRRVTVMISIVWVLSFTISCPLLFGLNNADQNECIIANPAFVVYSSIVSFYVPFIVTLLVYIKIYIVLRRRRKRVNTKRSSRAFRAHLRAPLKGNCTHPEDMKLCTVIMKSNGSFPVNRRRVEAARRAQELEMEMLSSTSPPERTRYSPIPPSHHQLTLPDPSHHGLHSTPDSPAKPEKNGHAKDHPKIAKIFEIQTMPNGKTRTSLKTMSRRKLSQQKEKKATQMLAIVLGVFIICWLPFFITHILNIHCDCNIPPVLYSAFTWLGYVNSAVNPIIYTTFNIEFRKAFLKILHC
#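 DiscoveRx PathHunter D2 beta-arrestin cells (2,100/well) attached overnight, then compound-stimulated 90 min at 37 C in HBSS/10 mM HEPES/0.1% Tween-20 buffer; beta-galactosidase complementation read by luminescence after 1 h at ambient temperature. Dopamine 57 uM final (EC100) as control.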
# CtBP-E1A inh: inhibitors of CtBP/E1A interaction; AID 651724; activity change, % (concentration not given with the values); actives 0.49% (n = 340,000); AlphaScreen GST-E1A/His-CtBP binding, 1536-well; hits give low values; control for the full effect not named in the record; in the data active means activity change below about -65%; inconclusive means about -30% to -65%; inactive means above about -30%; further: on the % scale 0 is the no-effect control and ±100 the full control effect
#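 GST-E1A and His-tagged CtBP (125 nM each as 5X stock) were preincubated with pin-transferred compound for 2 h at 37 °C in the dark, then glutathione donor and nickel acceptor beads were added for 1 h before AlphaScreen reading.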
# PINK1 modulator: modulators of PINK1 expression. Potency, µM (doses to about 76.6 µM), inactives show at the top dose activation (PINK1 increase), actives largely listed as activators. PINK1 immunofluorescence, high-content cytometry, 24 h. actives 0.2% (n = 410,000); active = well fitted activation curve with a large enough effect; inconclusive = small, poorly fitted or top-dose-only effect; inactive = flat fitted curve, though single readings scatter; cell line not stated here;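 further: potency means the concentration at half of the fitted maximal effect; % of control where 0% means no effect; nearly all actives have a fitted effect of over 65% in size; a mitochondrial uncoupler was the plate control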
#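 Fluorescence from anti-PINK1 antibody, together with nuclear and cell stains, was scanned on a laser-scanning cytometer. Before staining, stable-line cells were incubated 24 hours with compounds at 5 concentrations; primary antibody 12 h at 10 degrees C.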
# TRPML1 blocker: inhibitors of human TRPML1 channel; actives 0.02% (n = 390,000); Q9GZU1; activity change, negative = inhibition, % (test concentration not listed); TRPML1-inducible cells, Ca2+ dye fluorescence, FDSS; hits give low values; inhibition of EC80 agonist-evoked calcium signal; in the data active means activity change below about -50%; inconclusive means about -30% to -50%; inactive means above about -30%;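 further: stimulus is agonist 54-4 at its EC80 concentration; on the % scale 0 is the no-effect control and ±100 the full control effect; compound concentration not given in the record; the text of the record puts the active cut at -80%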
#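 Tet-induced TRPML1-DL cells loaded with Ca8 no-wash calcium dye were read kinetically on FDSS. Compound addition was followed by EC80 agonist 54-4 (4 uM final); inhibition was read over 110 s.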
# Six1-Eya2 blk: inhibitors of human Six1/Eya2 interaction | AlphaScreen GST-Six1/His-Eya2 binding, biochemical; hits give low values; control for the full effect not named in the record | actives 0.56% (n = 360,000) | activity change, % (test concentration not listed) | Q15475+O00167 | AID 651725; in the data active = activity change below about -65%; inconclusive = about -30% to -65%; inactive = above about -30%; further: on the % scale 0 is the no-effect control and ±100 the full control effect; compound concentration not given in the record
#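 AlphaScreen with GST-Six1 and His-Eya2 (5X mix: 250 nM and 500 nM), glutathione donor and nickel acceptor beads; buffer 50 mM Tris pH 8.0, 300 mM NaCl, 1 mM TCEP; 1 h at 37 C in the dark.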
# Starred values were filed as active, the others as inactive; ? = inconclusive; nt = not tested or not shown; & = joins results of further samples; [ ] = remark or other dose.
compound,Six1-Eya2 blk,D2 ag,TRPML1 agonist,PINK1 modulator,CtBP-E1A inh,TRPML1 blocker
O=C(N/N=C/c1cccc([N+](=O)[O-])c1)c1cccc(Br)c1,-1,-3.4,5.4,4.1%,1,19
Cn1nnc(NC(=O)c2cccc(OCc3ccccc3)c2)n1,2,-3.3,-1.0,0.9%,7,-7
CC(=O)c1ccc(S(=O)(=O)N2CCn3cccc3C2c2ccc(F)c(F)c2)cc1 (centres undefined),nt,nt,5.6,2.2%,nt,0
CN(C)C(=O)Cn1c(SCC(=O)Nc2ccc3c(c2)OCO3)nc2ccccc21,1,-2.0,-0.3,1.0%,3,23
Cn1c(SCC(=O)Nc2ccccc2F)nnc1-c1ccc(S(=O)(=O)N2CCOCC2)cc1,4,2.2,0.2,1.0%[38.3 µM],1,-14
Cc1nn(-c2ccc(C(F)(F)F)cn2)c(C)c1Oc1ccccc1O,4,-4.3,5.9,6.8%,2,2
Cc1ccc(NC(=S)NCc2cccs2)cc1,3,1.3,1.1,3.0%,-1,-7
N#Cc1ccccc1S(=O)(=O)N1CCN(C(=O)CCC2CCCC2)CC1,7,-2.3,-0.2,-0.6%,nt,-4
Cc1noc(C)c1COC(=O)CCN1c2ccccc2Sc2ccccc21,-7,-2.9,2.2,-2.6%,2,45
CCN(CC(=O)Nc1cc(Cl)ccc1C)c1ncnc2sc(C)c(C)c12,2,-0.7,3.1,2.2%,12,0
CC(C)C(NS(=O)(=O)c1cccs1)C(=O)N1CCc2ccccc2C1 (centres undefined),12,-1.3,0.1,-2.5%,0,-2
Cc1cc(O)c(NC(=O)c2ccco2)cc1C,-5,-7.5,-1.3,3.8%,0,0
CCOc1ccc(N(CC(=O)Nc2ccccc2C(=O)N2CCCC2)S(C)(=O)=O)cc1,0,1.3,0.3,-0.6%,-1,-7
CN(CC(=O)Nc1cccc(F)c1)C(=O)CSc1nc2ccccc2s1,2,-1.4,1.8,-5.2%,-2,-12
CCN(CCCNC(=O)CN1N=C(c2ccc(C)cc2)CCC1=O)c1ccccc1,nt,nt,0.8,-0.6%,nt,6
CC(=O)Nc1ccccc1-c1nc2ccccc2nc1OCC(=O)c1ccc(Br)cc1,0,-3.9,2.5,5.2%[38.3 µM],3,2
CCOC(=O)N1CCN(C(=O)CN2C(=O)CC(C)(C)S(=O)(=O)c3ccccc32)CC1,4,1.0,-0.1,nt,10,2
N#Cc1c2c(c[nH]c1=O)CCN2Cc1ccccc1,-1,-2.5,0.6,-1.8%,-13,-7
O=S(=O)(NCCc1ccc(F)cc1)c1ccc(F)cc1Br,6,-1.4,-0.8,5.3%,8,-1
COc1cc2c(cc1OC)CN(C1CCC(C(C)(C)C)CC1)CC2 (centres undefined),-11,-0.1,1.1,1.6%,-21,4
COc1ccc(C(=O)CSc2nccn2C)cc1,-12,-5.8,0.1,2.9%,-4,6
CC(C)(C)N1CC23CCC(C[C@@H]2C1=O)O3 (some centres undefined),0,-0.2,-0.7,-1.3%,nt,5
NC(=O)CSc1nc2c(sc(=S)n2-c2ccccc2)c(=O)[nH]1,5,4.8,-0.1,-1.3%,5,25
COc1ccc(S(=O)(=O)N(C)CC(=O)Nc2cccc(C(C)=O)c2)cc1Cl,-2,-0.9,0.8,1.7%[38.3 µM],4,28
O=C(Nc1ccc2oc(-c3ccccc3F)nc2c1)c1ccc([N+](=O)[O-])o1,-1,13,1.4,0.1%,2,10
Cc1nnc(NC(=O)CS(=O)(=O)Cc2ccccc2)s1,-3,2.5,1.7,-1.6%,0,8
CC1CCCCC1NC(=O)CN(C)S(=O)(=O)c1cccc2cccnc12 (centres undefined),5,-2.0,-0.6,-3.5%,-4,24
O=C(NCc1cccnc1)c1c[nH]c2cc3c(cc2c1=O)OCCO3,-10,0.5,0.5,0.9%,-11,6
COc1ccccc1NC(=S)N(CCCN1CCOCC1)Cc1cccs1,2,-2.8,1.1,-1.1%,-2,21
CCOc1ccc(/C=C/c2nc(C#N)c(N3CCCCC3)o2)cc1,nt,nt,-0.2,6.6%,nt,10
CCOc1ccc(C2/C(=C(\O)c3cccc(OC)c3)C(=O)C(=O)N2c2cc(C)on2)cc1OC (centres undefined),4,-2.3,-0.7,-2.1%,-1,-23
COc1cccc(-n2c(=O)c3cc(OC)c(OC)cc3n(CC(=O)Nc3ccccc3)c2=O)c1,nt,nt,-0.5,-0.7%,nt,-22
COc1cccc(NC(=O)CSc2nc3ncc(Br)cc3[nH]2)c1,-1,0.9,2.1,6.5%,-5,1
CN(C(=O)CN1C(=O)NC(c2ccccc2)(c2ccccc2)C1=O)C1CCS(=O)(=O)C1 (centres undefined),17,-4.1,2.5,-0.3%,4,-19
CC(NCc1ccncc1)C12CC3CC(CC(C3)C1)C2 (centres undefined),-1,-1.1,0.3,1.3%,0,10
CC(NC(=O)C12CC3CC(CC(C3)C1)C2)C(=O)N/N=C/C1=C(N2CCOCC2)C(=C\c2cccc([N+](=O)[O-])c2)/CC1 (centres undefined),2,-0.5,-0.4,4.1%,1,24
O=C(c1ccc(CS(=O)Cc2ccc(Cl)cc2)o1)N1CCN(c2ccccc2)CC1 (centres undefined),-7,1.2,-1.1,-0.1%,-7,5
CC(=O)c1ccc(-n2c(CCC(=O)O)ccc2-c2ccc(Cl)cc2)cc1,-3,7.6,1.6,-3.2%,4,-19
CCOC(=O)c1ccccc1NC(=O)c1cc(S(=O)(=O)N2CCOCC2)ccc1F,2,-1.7,1.7,-0.1%,12,27
COc1ccc2c(CNCc3ccco3)c(C(=O)O)n(Cc3ccc(F)cc3Cl)c2c1,nt,nt,-0.7,0.7%,nt,11
CCCCN1C(=O)C(=O)N(CC(=O)Nc2ccccc2C(=O)OCC)C1=O,0,1.5,2.4,2.4%,-98*,-4
CCC1=Nc2cc(C(=O)NCCc3ccccc3)ccc2Sc2ccc(Cl)cc21,nt,nt,1.0,4.7%,nt,58
COc1cc(-c2nnc(SCCOc3ccc(Cl)cc3C)o2)cc(OC)c1OC,nt,nt,-0.4,-0.5%,nt,-22
Cc1cc(C(=O)Nc2nnc(C3CCCCC3)s2)no1,-2,-0.5,0.8,12%[38.3 µM],6,21
CCOC(=O)N1CCN(C(=O)c2ccc3c(c2)N=C(CC)c2cc(C)ccc2S3)CC1,-10,4.3,-0.4,-0.9%,-15,-1
CCOC(=O)C1CCN(C(=O)c2cc3cc4ccc(OC)cc4nc3o2)CC1,0,1.9,-1.7,0.2%,-3,-3
CC(C)(C)c1cc(S(=O)(=O)CCc2ccccn2)cc(C(C)(C)C)c1F,0,-1.3,0.7,-2.9%[38.3 µM],13,16
COc1cccc(C#CC2=CC(=O)CC(C)(C)C2)c1,-4,-1.2,nt,6.7%,-7,nt

# 3 compounds from above, ordered by their value in PINK1 modulator, lowest first:
SMILES	PINK1 modulator
CCOC(=O)N1CCN(C(=O)c2ccc3c(c2)N=C(CC)c2cc(C)ccc2S3)CC1	-0.9%
CCCCN1C(=O)C(=O)N(CC(=O)Nc2ccccc2C(=O)OCC)C1=O	2.4%
CCC1=Nc2cc(C(=O)NCCc3ccccc3)ccc2Sc2ccc(Cl)cc21	4.7%

# Later entries:
compound,Six1-Eya2 blk,D2 ag,TRPML1 agonist,PINK1 modulator,CtBP-E1A inh,TRPML1 blocker
Cc1ccc2nc(SCC(=O)NCc3ccccc3Cl)nc(=O)n2c1,2,2.4,0.6,-1.0%,9,6
CCCCOc1ccc(CCC(=O)N/N=C/c2ccco2)cc1,-1,-1.0,1.4,2.6%,-1,1
Cc1cc(C)c(C#N)c(SCc2ccc(C(=O)O)cc2)n1,-4,8.4,0.2,2.4%,-23,-9
COc1ccc(OC)c(S(=O)(=O)NCc2csc(-c3ccccc3)n2)c1,-2,0.7,-0.3,nt,11,2
COc1cccc(S(=O)(=O)Nc2ccc3sc(C)nc3c2)c1,-1,0.0,1.1,-4.9%,-4,-9
COc1ccccc1NC(=O)C(C)OC(=O)COc1cccc2c1OC(C)(C)C2 (centres undefined),2,-7.2,0.0,1.3%,5,3
COc1ccc(NC(=O)c2sccc2SCc2cccc(C(F)(F)F)c2)cc1,15,-1.8,1.8,1.7%[38.3 µM],39,46
COc1ccc(C2CC(c3ccccc3)Nc3nc(NS(C)(=O)=O)nn32)cc1 (centres undefined),3,-1.4,-0.9,0.2%,nt,-4
CCCC1COC(Cn2cncn2)(c2ccc(C)cc2)O1 (centres undefined),-1,-0.4,-0.3,nt,11,5
COc1ccc(C(CNC(=O)c2oc3cc(Br)ccc3c2C)N2CCCCC2)cc1 (centres undefined),0,-1.0,0.4&-0.6,1.5%&1.5%,nt,4&-12
COc1ccccc1CNC(=O)CN1C(=O)NC(c2ccccc2)(c2ccccc2)C1=O,-1,-0.9,0.6,-1.0%,4,3
CCCCSCCCNC(=O)Nc1ccc(C)c(C)c1,-20,-2.6,0.0,2.7%,-16,5
CC(C)(CNc1ccc([N+](=O)[O-])cc1Cl)N1CCOCC1,5,-1.8,0.8,11%,-1,41
CCOc1ccc(CCNC(=O)CCc2c(C)nc3cc(-c4ccccc4OC)nn3c2C)cc1,nt,nt,0.6,0.4%,nt,-5
COC(=O)c1ccc(COc2ccccc2/C=C(\C#N)C(=O)Nc2ccccc2C)cc1,2,-4.2,-1.4,23%,0,-3
COc1cc(O)c(C(CC(=O)N2CCOCC2)c2ccc3c(c2)OCO3)c(OC)c1 (centres undefined),-15,-2.5,0.6&0.6,0.6%,-10,2&15
CC(=O)N1CCCc2cc(S(=O)(=O)N3CCCC(C(=O)Nc4cc(Cl)ccc4C)C3)ccc21 (centres undefined),nt,nt,1.5,-0.2%,nt,4
Cc1ccccc1C(=O)Nc1c2c(nc3ccccc13)CCCC2,0,-2.4,-0.4,5.6%,-7,-2
CC1=CC2=NC(=O)/C(=C\c3cccn3CCOc3ccc(C)c(C)c3)C(=N)N2O1,-27,-5.1,0.8,0.2%,?,-11
CCOc1ccccc1N1C(=O)CC(Sc2n[nH]c(-c3ccccc3)n2)C1=O (centres undefined),-5,6.5,0.3,-2.1%,2,-15
COc1ccc(C)cc1NC(=O)Nc1cnccn1,-2,-5.6,0.6,-2.1%,nt,29
COc1cccc(C(=O)NCCS(=O)(=O)N2CCCCCC2)c1,8,-1.8,-0.5,-0.5%,0,6
COc1cc(C(=O)NCCOc2ccccc2)c(Br)c(OC)c1OC,1,-3.0,4.5,-1.7%,6,-10
COC(=O)c1ccc(CNC(=O)CNC(=O)c2sc3ccccc3c2Cl)cc1,5,0.0,1.7,14%,-19,-9
CCn1c(CSCc2ccc(F)cc2)nnc1SCC(=O)NCc1ccccc1,1,0.3,-0.9,-3.0%,3,2
